Screening data: PubChem, several laboratories
ALR inh: inhibitors of human ALR sulfhydryl oxidase, primary screen, biochemical, H2O2 detection, HRP-luminol luminescence, single point; purified ALR, DTT oxidation; hit rate 3.8% among 290,000; AID 485317, 2010; FAD-linked sulfhydryl oxidase ALR (Homo sapiens), P55789; inhibition, % (no concentration beside the values);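 active means mean and each replicate at 75% or more; inconclusive means only one of the two met; inactive means neither met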;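 further: stock transfer was 7.5 nL into about 7.5 µL; 0% = neutral wells and 100% = wells with inactivated enzyme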
Target sequence (P55789 whole entry, looked up): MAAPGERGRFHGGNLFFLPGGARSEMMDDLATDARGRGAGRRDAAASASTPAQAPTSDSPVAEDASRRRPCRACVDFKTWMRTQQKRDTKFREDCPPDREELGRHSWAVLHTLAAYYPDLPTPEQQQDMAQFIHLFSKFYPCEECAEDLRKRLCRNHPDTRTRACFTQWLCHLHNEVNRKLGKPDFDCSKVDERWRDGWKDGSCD
Calb FLC: C. albicans growth inhibition with fluconazole, primary screen, CaCi-2 strain, Alamar Blue fluorescence | C. albicans CaCi-2 (fluconazole-resistant clinical isolate) + fluconazole, 48 h | growth inhibition, % (concentration not given with the values) | hit rate 0.57% among 300,000;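 active means most replicates above 75%; inconclusive means exactly half above 75%; inactive means most below 75%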;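 further: all wells also contain fluconazole at 8 µg/ml as a sub-toxic cotreatment; 0% = median of DMSO wells and 100% = median of geldanamycin control wells; wells of about 8 µL received 7.5 nL stock; the first replicate is given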
Beta2AR agonist: beta2AR agonists driving receptor internalization, primary screen, cell-based, FAP fluorogen, flow cytometry; response, % (test concentration not listed); AID 504454, 2011; Beta-2 adrenergic receptor (Homo sapiens), P07550; hit rate 0.43% among 340,000; Am2.2-beta2AR cells; reference of the scale not given here;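 active means response above a set limit, near 3 SD of response in nonfluorescent compounds, cut at about 42% in these data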;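 further: stock transfer was 100 nL into about 11 µL; a reference agonist was the positive control; negative values mostly stem from fluorescent compounds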
Target sequence (P07550 whole entry, looked up): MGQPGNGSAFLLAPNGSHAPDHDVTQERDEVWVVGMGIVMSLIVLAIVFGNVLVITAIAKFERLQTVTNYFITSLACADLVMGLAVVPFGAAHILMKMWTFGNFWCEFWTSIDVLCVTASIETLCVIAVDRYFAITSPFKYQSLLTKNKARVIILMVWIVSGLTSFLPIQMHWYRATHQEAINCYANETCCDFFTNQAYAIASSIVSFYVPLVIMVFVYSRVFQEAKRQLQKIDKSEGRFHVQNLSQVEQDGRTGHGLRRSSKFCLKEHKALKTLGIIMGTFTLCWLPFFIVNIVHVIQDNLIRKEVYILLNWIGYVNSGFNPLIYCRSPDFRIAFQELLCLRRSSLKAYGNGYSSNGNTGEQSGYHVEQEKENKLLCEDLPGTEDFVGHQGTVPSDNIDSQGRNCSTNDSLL
T cruzi repl: inhibitors of intracellular T. cruzi growth, primary screen, luminescence, NIH3T3 host cells. T. cruzi beta-gal in NIH3T3, 90 h. inhibition, % (test concentration not listed). hit rate 1.4% among 300,000. AID 1885, 2009;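 active means mean inhibition across valid replicates above about 55%, limit read from the data; inconclusive means mean below that limit but half or more replicates reach it; inactive means mean below it, under half of replicates reach it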;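 further: signal also drops with host cell toxicity which is not excluded here; 0% = plate median of DMSO wells and 100% = zero luminescence signal; higher percent means less beta-gal luminescence so fewer parasites; stock transfer was 50 nL into about 50 µL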
Bfl-1 A1 inh: caspase 3/7 activation in MEF A1-2A-BIM cells, primary screen, A1 inhibitor project, cell-based, luminescence, HTS; caspase activation, % (no concentration beside the values); hit rate 0.066% among 330,000; AID 2462, 2010; Caspase-Glo 3/7 luminescence, 3 h; percent of clofoctol response, vehicle zero;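 active means over half of replicate activation scores above 10%, or exactly half above 10 with the replicate mean above 10; inconclusive means replicate mean below 10 yet half the replicates above 10; inactive means over half of replicates below 10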;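 further: wells of about 30 µL received 50 nL stock; many hits fall short of the cut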
LANA-H2A inh: blockers of LANA interaction with H2A/H2B – biochemical, FP readout, HTS, primary screen | Protein LANA1 (Human herpesvirus 8 type P (isolate GK18)), Q9QR71 | cell-free LANA-H2A/H2B peptide, fluorescence polarization | inhibition, % (test concentration not listed) | hit rate 0.6% among 320,000 | AID 2629, 2010; in the data active means inhibition mostly above about 10%, no sharp cut-off; inactive means mostly below about 6.7%;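 further: stock transfer was 7.5 nL into about 10 µL; 0% = median of vehicle wells and 100% = median of positive control wells; one replicate is shown; the record names a cut of 25% in any replicate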
Beta cell apopt: inhibitors of cytokine-induced beta cell apoptosis, primary screen, luminescence; INS-1E cytokine-induced death, ATP luminescence, 48 h; percent of positive-control rescue, neutral wells zero; protection from apoptosis, % (test concentration not listed); hit rate 0.8% among 300,000; AID 435005, 2010;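 active means all replicates at 75% or more, or half of them and the mean; inconclusive means half reach 75% but not the mean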;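 further: 0% = cytokine-treated negative control wells and 100% = positive control rescue; higher means more ATP so stronger rescue from cytokine killing; wells of about 40 µL received 100 nL stock; the first replicate is given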
rRNA inh HTS: reduced GFP signal of wild-type E. coli, primary screen, bacterial rRNA inhibitor project, GFP/RFP fluorescence, OD600, single point. hit rate 1.6% among 350,000. AID 720706, 2013. E. coli WT GFP vs humanized-ribosome RFP mutants, 24 h; stronger effect = lower value; DMSO median 0, no signal -100. GFP signal change (wild-type ribosome), % (test concentration not listed);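 active means significant combined selectivity score with lowered wild-type GFP, culture density cut under 30%, mutant RFP and density less affected; inactive means any of these conditions unmet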; further: one replicate is shown; some compounds called inactive have numbers as strong as hits
rRNA inh HTS OD600: also measured in rRNA inh HTS; calls as there; OD600 change, %; measured here: OD600 growth;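 optical density of the mix in the first replicate; 0 = DMSO median and -100 = no signal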
rRNA inh HTS RFP: also measured in rRNA inh HTS; calls as there; RFP signal change, %; measured here: RFP humanized mutant strains;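 first replicate; 0 = DMSO median and -100 = no signal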
* = called active by the depositor; ? = inconclusive; / = no result given; & = joins results of further samples. These rows are one share of the data; rates above refer to the full screens.

SMILES	ALR inh	Calb FLC	Beta2AR agonist	T cruzi repl	Bfl-1 A1 inh	LANA-H2A inh	Beta cell apopt	rRNA inh HTS	rRNA inh HTS OD600	rRNA inh HTS RFP
CCN(CC1CCCO1)C(=O)c1cc(COc2ccccc2SC)on1 (stereo not drawn)	-7	5	1	-13	-0.5	-1.2	-2	-24	-25	-2.3
CCO[C@@H]1OC(C(=O)N2CCOCC2)=C[C@H](c2ccccc2)[C@H]1CCCO	0	-1	1	-12	-0.1	-2.1	-6	16	3	-4.8
COc1ccc(OC)c(C2CC(=O)C3=C(C2)NC(=O)CC3c2ccc(O)c(OC)c2)c1 (stereo not drawn)	27	2	-2	-20	0.3	0.6	2	/	/	/
CN(C)C(=O)C1(c2ccccc2)CCN(S(=O)(=O)c2ccccc2)CC1	1	0	4	11	1.2	0.5	-2	/	/	/
COc1ccccc1N1CCN(S(=O)(=O)c2ccc3c(c2)NC(=O)CS3)CC1	12	-22	-4	22	0.7	-3.9	0	-4	-11	6.0
COc1cc(C(=O)N(C)CCOc2ccccc2)ccc1OCC(=O)Nc1cccc(C(F)(F)F)c1	-2	-2	1	2	0.5	-1.1	-4	-13	-23	4.3
Cc1cccc(N(Cc2ccccc2F)S(C)(=O)=O)c1	-3	0	-1	12	0.7	-1.6	0	/	/	/
COc1cc(CN2CCC(C(=O)N3CCN(c4ccccc4F)CC3)CC2)ccc1O	31	-2	8	-5	0.0	-0.5	16	/	/	/
COc1ccc(NC(=O)CN2C(=O)NC3(CCCC3)C2=O)c(OC)c1	/	0	1	-2	0.0	3.4	-3	2	5	-3.8
NC(=O)c1cc(C(=O)Cc2ccccc2)c[nH]1	/	-3	2	-8	0.3	3.8	1	8	9	-2.6
CC1CCN(C(=O)c2ccc(SCc3ccccc3F)c([N+](=O)[O-])c2)CC1	-16	6	33	40	0.3	10	2	1	3	-3.4
O=C(NCCOc1ccccc1Cl)C(=O)c1c[nH]c2ccccc12	-16	21	-4	2	-1.3	-5.5	-3	-51	-78	-15
COc1cc(OC)cc(C(=O)Nc2c(C)nn(-c3ccccc3)c2C)c1	1	1	1	-18	-0.1	-1.7	1	10	0	0.1
COC(=O)/C(=C/c1ccccc1)NC(=O)c1ccco1	-10	0	5	-4	0.4	-3.0	2	/	/	/
COc1cc(C(=S)N2CCN(C(c3ccccc3)c3ccccc3)CC2)cc(OC)c1O	-6	-2	1	-4	0.4	1.4	-15	-3	6	0.5
CC(C)CCNC(=O)NC(=O)COc1ncnc2sccc12	-3	2	-3	8	0.2	-0.6	-14	20	13	8.9
CN(C)S(=O)(=O)Nc1ccc2c(c1)Cc1ccccc1-2	5	-4	-1	10	0.4	-0.2	-5	-17	-19	1.0
COC(=O)C1=CN(c2cccc(C)c2)C=C(C(=O)OC)C1c1cc(OC)c(O)c([N+](=O)[O-])c1	5	44	-2	11	0.6	1.3	7	/	/	/
Cn1c(=O)c2c(n(Cc3ccccc3)c1=O)NC(=O)C2CC(=O)O (stereo not drawn)	6	0	-1	0	-0.3	-3.0	-6	/	/	/
CCOC(=O)C1(CCc2ccccc2)CCN(Cc2nccn2CC)CC1	-1	-11	-9	11	-1.0	2.3	0	-4	-8	0.3
CCCCNC(=O)NS(=O)(=O)c1ccc(C(=O)OC)o1	0	-11	-2	-9	0.4	0.4	-5	/	/	/
Cc1ccc(S(=O)(=O)N2CCc3cc4c(cc3C2C)OCCCO4)cc1 (stereo not drawn)	-6	3	-5	-1	-1.4	-2.7	-1	-19	-46	26
COc1ccc(NC(=O)CSc2nnnn2-c2ccc(F)cc2)cc1	/	-1	-10	-4	0.4	0.3	3	2	8	-7.2
Cc1cc(C)n2cc(CSc3ccc(Br)cc3)nc2n1	24	33	22	0	1.0	2.2	-6	/	/	/
Cc1cccc(OCc2n[nH]c(=S)n2Cc2ccccc2)c1	/	45	2	-15	-0.2	-2.8	-2	-5	-5	-1.3
CCCCC1NC(C(=O)O)CS1 (stereo not drawn)	-1	-20	-12	-2	0.3	-0.3	-4	16	-1	-1.5
Cc1ccc(N(C)S(=O)(=O)c2c(C)noc2/C=C/N(C)C)cc1	-5	-7	-3	0	0.1	-12	-8	-9	-6	1.7
COC(=O)C(CC(C)C)NC(=O)c1ccc(F)cc1 (stereo not drawn)	-3	0	14	-9	0.7	-1.3	3	6	14	-2.9
COc1cc(/C=N/NC2=NS(=O)(=O)c3ccccc32)ccc1OC(C)=O	43	-1	6	0	-0.7	4.9	-2	3	1	4.5
CCn1c(SCC(=O)Nc2cccc(C)c2)nc2ccccc2c1=O	30	/	4	9	0.9	-2.1	3	-4	-1	-1.2

One compound at a time, from the list above. Order of screens: ALR inh | Calb FLC | Beta2AR agonist | T cruzi repl | Bfl-1 A1 inh | LANA-H2A inh | Beta cell apopt | rRNA inh HTS | rRNA inh HTS OD600 | rRNA inh HTS RFP
CCCCNC(=O)NS(=O)(=O)c1ccc(C(=O)OC)o1 across the screens: 0 | -11 | -2 | -9 | 0.4 | 0.4 | -5 | / | / | /
CCn1c(SCC(=O)Nc2cccc(C)c2)nc2ccccc2c1=O across the screens: 30 | / | 4 | 9 | 0.9 | -2.1 | 3 | -4 | -1 | -1.2

Next section.
SMILES	ALR inh	Calb FLC	Beta2AR agonist	T cruzi repl	Bfl-1 A1 inh	LANA-H2A inh	Beta cell apopt	rRNA inh HTS	rRNA inh HTS OD600	rRNA inh HTS RFP
COc1ccc(NC(=O)CN2C(=O)NC(C)(C3CC3)C2=O)c(OC)c1 (stereo not drawn)	2	/	-2	/	-0.8	7.4	-6	2	4	-0.5
COc1ccc(NC2=Nc3ccccc3CC2)cc1	-3	-14	5	-17	-5.5	-1.7	-2	/	/	/
CC1CCCCC1NC(=O)c1ccc(S(=O)(=O)N2CCCC2)cc1 (stereo not drawn)	-4	-11	-2	-5	-0.3	6.9	-1	/	/	/
CC(OC(=O)CCCNC(=O)c1ccc(Cl)cc1)C(=O)N(C)Cc1ccccc1 (stereo not drawn)	-3	-3	1	3	0.1	4.3	-5	-12	-8	-4.2
CC1=CC2=NC(=O)/C(=C\c3cc(C)n(-c4cccc(Cl)c4)c3C)C(=N)N2O1	-3	3	0	7	0.3	0.1	12	1	-1	-4.5
CN(C)/C=C1\Cc2ccccc2C1=O	-37	5	4	-6	-0.2	6.4	2	-1	-1	2.8
O=C(NCC(=O)N1CCN(Cc2ccccc2)CC1)c1ccc(Br)o1	-1	-13	-2	12	1.6	0.8	0	8	11	1.8
COc1ccc(Cl)cc1-c1n[nH]c(=S)n1C	89*	11	-1	-13	-0.7	-0.9	-7	/	/	/
Cc1ccc(SC[C@H](Cc2ccccc2)N2CCN(CC(C)C)CCC2=O)cc1	0	6	-2	21	0.5	4.1	-3	-42	-72	-2.9
CC(Sc1ncccn1)C(=O)NC1(C#N)CCCCC1 (stereo not drawn)	-8	/	0	/	1.1	18*	-7	/	/	/
Cc1ccc(Nc2c([N+](=O)[O-])cc(C(=O)N3CC(=O)Nc4ccccc43)cc2[N+](=O)[O-])c(C)c1	-4	7	1	51	-0.1	-3.8	10	/	/	/
CCOC(=O)c1cc2c(=O)n3cccc(C)c3nc2n(Cc2ccco2)c1=NC(=O)c1ccccc1	89*	?	16&15	29	-0.4	-1.9	12	-12	-9	2.2
O=C(NC1(C(F)(F)F)NC(=O)N(c2ccccc2)C1=O)c1cccs1 (stereo not drawn)	8	-1	0	-10	0.6	2.2	-2	/	/	/
CC(=O)N1CCc2c(sc(NC(=O)C3CCCN3S(=O)(=O)c3cccs3)c2C(N)=O)C1 (stereo not drawn)	/	2	-11	-5	0.8	5.5	3	11	3	1.7
Cc1ccc(F)c([C@H]2C3C=CCC(c4ccccc4)C3C(=O)N2Cc2ccccc2)c1 (stereo partly drawn)	/	-6	12	24	2.6	-0.8	109*	-2	15	5.2
Cn1c(Cn2c(=O)sc3ccccc32)nnc1SCC(=O)NCc1ccc(F)cc1	-1	/	-7	/	-1.9	-3.0	2	6	10	-0.1
O=C(Cc1c(F)cccc1Cl)N1CCN(C(=O)c2ccco2)CC1	2	-8	-5	3	1.1	3.9	-3	7	12	-1.6
C=CC[C@@H](CC(=O)N[C@@H](CO)Cc1ccccc1)C(=O)N[C@H](COC(=O)[C@@H](CC=C)Cc1ccc(F)cc1)Cc1ccccc1	2	/	-3	/	-0.1	2.4	-9	4	2	7.2
C=CCc1ccccc1OCCCCN1CCCC1	-38	-3	19	22	?	-6.5	1	/	/	/
Cc1cccc(NC(=O)CCc2c(C)nn(-c3ccc(N4CCOCC4)nn3)c2C)c1	-2	-5	5	-5	1.2	-7.0	6	0	4	-0.4
Cc1nc2ccccn2c1C(=O)OCC#N	-7	18	-6	-2	-0.6	1.5	-2	14	14	2.6
O=C(c1ccc(C(F)(F)F)cc1)n1ccc(-c2cccs2)n1	1	-3	-4	-7	-0.5	-4.5	0	6	9	0.8
CCOc1ccc(N(CC(=O)NC2CCCC2)S(=O)(=O)c2c(C)noc2C)cc1	-11	15	1	7	0.3	-2.0	-2	/	/	/
O=C(NCCc1ccccc1)c1cnn2c(C(F)F)cc(C3CC3)nc12	-7	2	-4	13	-0.6	4.3	8	/	/	/
Cc1cccc(N2CC(C(=O)NCCC3=CCCCC3)CC2=O)c1C (stereo not drawn)	-4	1	-1	0	-0.6	1.3	-5	-5	-8	-0.1
O=C(c1cccc(S(=O)(=O)N2CCN(c3ccc(F)cc3)CC2)c1)N1CCCC1	15	/	-4	/	-1.2	5.2	6	/	/	/
COc1ccccc1C(=O)/C=C/c1ccc(N2CCCCC2)c([N+](=O)[O-])c1	3	-20	0	26	-0.4	-0.6	/	-12	-5	-11
Oc1ccc(Cl)cc1C=Nc1ccc2c3c(cccc13)CC2	/	6	18	1	0.2	/	2	26	-2	32
O=C1C2C3C=CC(C4CC34)C2C(=O)N1Cc1ccco1 (stereo not drawn)	-2	5	11	0	0.1	-2.3	-5	6	2	0.0
COc1cc(NC(=O)c2cc3nc(C)cc(C)n3n2)c(OC)cc1Cl	-7	-2	0	34	-1.1	-3.5	6	/	/	/
Cc1cc(SCC(=O)OCC(=O)N(C)C2CCS(=O)(=O)C2)c(C)cc1Br (stereo not drawn)	1	2	-1	-18	-0.1	-3.1	0	-17	-33	-8.0
CCOc1ccc(N(C(=O)c2cc3ccccc3oc2=O)C2C=CS(=O)(=O)C2)cc1 (stereo not drawn)	1	-2	-6	-11	0.5	-3.0	-2	-2	-6	-4.3
O=[N+]([O-])c1ccc(-c2csc(Nc3ccccc3)[n+]2Cc2ccccc2)cc1	-2	-6	3	43	-0.9	2.0	11	/	/	/
N#CCSc1nc2ccccc2c(=O)n1CCC(=O)NCCc1ccccc1	-4	5	6	-2	0.4	-0.4	4	/	/	/
